Screening results: PubChem BioAssay, National Center for Advancing Translational Sciences (NCATS)
Methyltransferases: Primary Screen for Target Class Profiling of Small Molecule Inhibitors of Methyltransferases; purified enzyme, MTase-Glo SAH luminescence; stronger effect = lower value; calls only at 40 µM; hit rate 3.9% among 25,000; AID 1745853, 2022; active = -50% or lower on at least one of six enzymes; inconclusive = the cases between; inactive = as a rule above -30% on all six;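 also: enzymes were COMT GAMT GNMT HNMT NNMT and PNMT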
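Each enzyme was assayed with SAM and its substrate. SAH formation detected by MTase-Glo luminescence; single-point 40 uM screen[…].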
Calls only; i = inactive; ? = inconclusive; + = active, no number. % is scaled to controls: 0 for no effect and ±100 for the full control effect.

Preview:
SMILES	Methyltransferases
O=C1NC(Cc2ccc(O)cc2)C(=O)N2CCCC12 (stereo not given)	i
COc1ccc(CN2C(=O)c3cc4sccc4n3CC2(C)C(=O)NC2CCCCCCC2)cc1 (stereo not given)	i
C=C1C(=O)O[C@@H]2/C=C(\C)CC/C=C(\C(=O)O[C@@H]3O[C@H](CO)[C@@H](O)[C@H](O)[C@H]3O)CC[C@@H]12	i
Cc1ccc(CNC(=O)C2(C)Cn3nc(C(=O)NCc4ccco4)cc3C(=O)N2C)cc1 (stereo not given)	i
CCC(C)NC(=O)c1ccc2c(=O)n(C3CC3)c3nn(CC(=O)NC(C)C)c(=O)n3c2c1 (stereo not given)	i
CC(C)CCn1c(=O)c2ccc(C(=O)NCC(C)C)cc2n2c(=O)n(Cc3cccc(F)c3)nc12	i
COc1ccc(CCNC(=O)Cn2ccc3cc(S(=O)(=O)N4CCCCC4)ccc32)cc1OC	i
Cc1ccc(C)c(CC(=O)NCc2cc3n(n2)CCN(C(=O)N(C)C)C3)c1	i
CC(=O)Nc1c2n(c3ccccc13)CC(C)(C(=O)NC1CCCC1)N(C(C)c1ccccc1)C2=O (stereo not given)	i
COC(=O)c1cc2n(n1)CC(C)(C(=O)NC1CCCC1)N(c1ccc(F)cc1C)C2=O (stereo not given)	i
CCn1c(CO)nnc1C1CC(NC(=O)c2sccc2N)C1 (stereo not given)	i
CCC(C)C(=O)O[C@@H]1[C@@H](O)[C@@H](O[C@H]2O[C@H](CO)[C@@H](O)[C@H](O)[C@H]2O)O[C@H](CO)[C@H]1O (stereo not given in full)	i
O=C(C1CCCC1)N1Cc2ccccc2CC2(CCCN(Cc3ccccc3)C2)C1 (stereo not given)	i
CCOC(=O)c1cc2n(n1)CC(C)(C(=O)NCc1ccc(C)cc1)N(c1ccc(OCC)cc1)C2=O (stereo not given)	i
CC1(C(=O)NC2CCCCC2)Cn2nc(-c3ccco3)cc2C(=O)N1c1ccc(F)cc1F (stereo not given)	i
Cc1cccc(CNC(=O)C2(C)Cn3cnc(C(=O)N4CCCC4)c3C(=O)N2C2CC2)c1 (stereo not given)	i

All compounds of this part, from the first entry:
SMILES	Methyltransferases
O=C1NC(Cc2ccc(O)cc2)C(=O)N2CCCC12 (stereo not given)	i
COc1ccc(CN2C(=O)c3cc4sccc4n3CC2(C)C(=O)NC2CCCCCCC2)cc1 (stereo not given)	i
C=C1C(=O)O[C@@H]2/C=C(\C)CC/C=C(\C(=O)O[C@@H]3O[C@H](CO)[C@@H](O)[C@H](O)[C@H]3O)CC[C@@H]12	i
Cc1ccc(CNC(=O)C2(C)Cn3nc(C(=O)NCc4ccco4)cc3C(=O)N2C)cc1 (stereo not given)	i
CCC(C)NC(=O)c1ccc2c(=O)n(C3CC3)c3nn(CC(=O)NC(C)C)c(=O)n3c2c1 (stereo not given)	i
CC(C)CCn1c(=O)c2ccc(C(=O)NCC(C)C)cc2n2c(=O)n(Cc3cccc(F)c3)nc12	i
COc1ccc(CCNC(=O)Cn2ccc3cc(S(=O)(=O)N4CCCCC4)ccc32)cc1OC	i
Cc1ccc(C)c(CC(=O)NCc2cc3n(n2)CCN(C(=O)N(C)C)C3)c1	i
CC(=O)Nc1c2n(c3ccccc13)CC(C)(C(=O)NC1CCCC1)N(C(C)c1ccccc1)C2=O (stereo not given)	i
COC(=O)c1cc2n(n1)CC(C)(C(=O)NC1CCCC1)N(c1ccc(F)cc1C)C2=O (stereo not given)	i
CCn1c(CO)nnc1C1CC(NC(=O)c2sccc2N)C1 (stereo not given)	i
CCC(C)C(=O)O[C@@H]1[C@@H](O)[C@@H](O[C@H]2O[C@H](CO)[C@@H](O)[C@H](O)[C@H]2O)O[C@H](CO)[C@H]1O (stereo not given in full)	i
O=C(C1CCCC1)N1Cc2ccccc2CC2(CCCN(Cc3ccccc3)C2)C1 (stereo not given)	i
CCOC(=O)c1cc2n(n1)CC(C)(C(=O)NCc1ccc(C)cc1)N(c1ccc(OCC)cc1)C2=O (stereo not given)	i
CC1(C(=O)NC2CCCCC2)Cn2nc(-c3ccco3)cc2C(=O)N1c1ccc(F)cc1F (stereo not given)	i
Cc1cccc(CNC(=O)C2(C)Cn3cnc(C(=O)N4CCCC4)c3C(=O)N2C2CC2)c1 (stereo not given)	i
CCOC(=O)c1cc2n(n1)CC(C)(C(=O)NCCC(C)C)N(c1ccccc1CC)C2=O (stereo not given)	i
O=C(N1CCCC1)N1CCCC(c2nnc3n2CCNC3)C1 (stereo not given)	i
COc1ccccc1C1NC(C(=O)O)Cc2c1[nH]c1ccccc21 (stereo not given)	i
OCC(O)C(c1c[nH]c2ccccc12)c1c[nH]c2ccccc12 (stereo not given)	i
CCOC(=O)c1cc2n(n1)CC(C)(C(=O)NCCC(C)C)N(Cc1cccc(F)c1)C2=O (stereo not given)	i
CCN(Cc1cccnc1)C(=O)CN(c1ccc(OC)nc1)S(=O)(=O)c1ccccc1C	i
COc1ccc(CCNC(=O)CCc2nnc3n(Cc4ccc(C)cc4)c(=O)c4ccccc4n23)cc1OC	i
COc1ccc(C(=O)N2CCC3(CC2)CCC(O)(CN(C)C)CC3)cc1OC	i
COCCN1C(=O)c2cc(-c3ccccc3)nn2CC1(C)C(=O)NCc1ccccc1OC (stereo not given)	i
SMILES	Methyltransferases
C=CC(=O)N1CC(N2CCN(C(=O)CNc3cc(C4CC4)c(Cl)cc3O)CC2)C1	i
O=S(=O)(c1ccc2[nH]c3c(c2c1)CCCC3)N1CCc2ccccc21	i
CC(CN1C(=O)c2ccc(-c3ccco3)n2CC1(C)C(=O)NC1CCCCCC1)c1ccccc1 (stereo not given)	i
O=C1CN(Cc2ccc(Cl)cc2)CCN1c1ccc(Cl)nn1	i
CN(C)c1ccc(C(=O)N2CCN3C(=O)N(CC(N)=O)C(=O)[C@@H]3C2)cc1	i
CCOC(=O)c1cc2n(n1)CC(C)(C(=O)NC1CCC(C)CC1)N(c1cccc(C)c1C)C2=O (stereo not given)	i
CCCc1sc(NC(=O)C[C@H]2NC(=O)c3ccccc3NC2=O)nc1C(=O)OC	+
Cc1cc(C(=O)N2CCC(Cc3nc(-c4ccccc4)n[nH]3)C2)n(C)n1 (stereo not given)	i
CCc1cccc(N2C(=O)c3c(C(=O)OC)ncn3CC2(C)C(=O)NC2CCCCCC2)c1 (stereo not given)	i
CN(C)CCN(Cc1cccs1)c1ccccn1	i
CCc1ccccc1NC(=O)N1CCn2cccc2C1C (stereo not given)	i
O=c1[nH]c2ccc(S(=O)(=O)Nc3ccc(F)c(Cl)c3)cc2[nH]1	i
Cc1noc(C)c1C(=O)N[C@@H]1CN(c2ncccn2)C[C@H]1CN(C)C	i
Cc1cc2c(cc3n2CC(C)(C(=O)NC2CCCCCCC2)N(Cc2cccs2)C3=O)o1 (stereo not given)	i
CC(C)Oc1ccc(CN2C(=O)c3cc(C4CC4)nn3CC2(C)C(=O)NC2CCCCCC2)cc1 (stereo not given)	i
COCCn1ccc2ccc(C(=O)Nc3ccc4c(c3)C(=O)N3CCC[C@H]3C(=O)N4)cc21	i
COc1ccc(-c2cc3n(n2)CC(C)(C(=O)NCc2ccccc2OC)N(c2ccccc2C)C3=O)cc1 (stereo not given)	i
CC1CCC2(CO)C(C(=O)O)=CCCC2C1(C)CCc1ccoc1 (stereo not given)	+
CCCn1c(=O)c2ccc(C(=O)NC(C)CC)cc2n2c(=O)n(CC(=O)NCc3ccc(C)cc3)nc12 (stereo not given)	i
CC(C)NC(=O)c1ccc2c(=O)n(C(C)C)c3nn(CC(=O)NCc4ccccc4)c(=O)n3c2c1	i
NC(=Nc1ccc(CCNCc2cccc(Cl)c2)cc1)c1cccs1	+
CSc1ccccc1N1CCN(CCCCCC(=O)NC2CCCc3ccccc32)CC1 (stereo not given)	i
O=C(CCc1nnc2n(Cc3ccccc3)c(=O)c3ccccc3n12)NCc1ccccc1Cl	i
O=C([C@@H]1C[C@H](F)CN1S(=O)(=O)Cc1ccccc1F)N1CCc2ccccc2C1	i
CCCC1c2cccn2CCN1C(=O)Nc1cc(C)ccc1OC (stereo not given)	i
SMILES	Methyltransferases
CC(C)Cc1cc(C(=O)NCC2CCN(c3cnn(C)c(=O)c3)C2)no1 (stereo not given)	i
COc1cccc(N2CCN(S(=O)(=O)c3cc4c(cc3C)n(C)c(=O)n4C)CC2)c1	i
CCc1cc2c(cc3n2CC(C)(C(=O)NC2CCC(C)CC2)N(CCN(CC)CC)C3=O)s1 (stereo not given)	i
C=CC(=O)N1CCN(C(=O)c2cc(-c3cc(Cl)ccc3Cl)c(Cl)cc2OC)CC1	+
Cc1noc(-c2ccc(OC3CN(S(=O)(=O)c4c(C)noc4C)C3)cc2)n1	i
O=C(NCC1CCC(=O)N(Cc2ccccc2)CC1)C1CCCCC1 (stereo not given)	i
Cc1cccc(NC(=O)CSc2nnc3[nH]c(=O)c(C(C)(C)C)nn23)c1	i
CCn1cc(S(=O)(=O)NCC2Cn3cccc3CN2Cc2ccccc2)cn1 (stereo not given)	i
CCCn1c(=O)c2cc(Cl)ccc2n2c(SCC(=O)Nc3cc(Cl)ccc3OC)nnc12	i
CC(C)Cn1c(=O)c2cc(F)ccc2n2c(SCC(=O)Nc3ccc(Cl)cc3)nnc12	i
CCc1cc2c(=O)c(-c3nc4ccccc4s3)coc2c(CN2CCCCC2)c1O	i
COc1ccccc1CC(=O)N1CCCc2ncc(C(=O)Nc3cccc(Cl)c3)cc21	+
CC1CCN(S(=O)(=O)c2ccc3c(c2)oc(=O)n3CC(=O)NCc2ccc(Cl)cc2)CC1	i
Cc1ccc(NC(=O)Cn2nc3n(C)c(=O)c4ccc(C(=O)NC5CCCCC5)cc4n3c2=O)cc1F	i
O=C(c1csc(Cc2ccccc2)n1)N1CCC2(CCCNC2)C1 (stereo not given)	i
Cc1ccc2c(cnn2C(=O)CCC(=O)N2CCN(c3ccccc3)CC2)c1	i
CCCn1c(=O)c2ccccc2n2c(=O)n(CC(=O)NC3CCCCC3)nc12	i
COCCCNC(=O)C1(C)Cn2nc(-c3ccccc3)cc2C(=O)N1c1ccccc1C (stereo not given)	i
O=C(CCn1ccc2cc(S(=O)(=O)N3CCCCC3)ccc21)NCCc1ccco1	i
Cc1cc2c(cc3n2CC(C)(C(=O)NC2CCCCCC2)N(Cc2ccccn2)C3=O)o1 (stereo not given)	i
CC1(C(=O)NCc2ccccc2)Cn2nc(-c3ccccc3)cc2C(=O)N1c1ccc2c(c1)OCO2 (stereo not given)	i
COc1cc(O)c2c(c1Cl)CC(C)OC2=O (stereo not given)	i
CCOc1ccc(N2C(=O)c3cc(-c4ccco4)nn3CC2(C)C(=O)NC2CCCCCC2)cc1 (stereo not given)	i
CC(NC(=O)OCc1ccccc1)c1nc2cccnc2n1C1CCCCC1 (stereo not given)	i
O=C1CN(Cc2ccc(Br)cc2)S(=O)(=O)c2ccccc2N1Cc1ccccc1F	i
SMILES	Methyltransferases
CC(C)C1C(OC(=O)/C=C/c2ccccc2)CC2(C)OC2CCC2(C)OC2C1O (stereo not given)	i
Cc1ccc(Cn2c(=O)c3ccc(C(=O)NCC(C)C)cc3n3c(=O)n(CC(N)=O)nc23)cc1	i
CCOc1ccccc1CN1C(=O)c2cc(-c3cccs3)nn2CC1(C)C(=O)NC1CCCCC1 (stereo not given)	i
CCCN1C(=O)c2c(C(=O)NCCc3ccccc3OC)ncn2CC1(C)C(=O)NC1CCCC1 (stereo not given)	i
COc1ccc(/C=C/C(=O)O[C@@H]2[C@@H](O[C@@H]3O[C@H](CO)[C@@H](O)[C@H](O)[C@H]3O)[C@@H](O)[C@H](O[C@H]3C4C=CO[C@@H](O[C@@H]5O[C@H](CO)[C@@H](O)[C@H](O)[C@H]5O)C4[C@@]4(CO)O[C@@H]34)O[C@H]2C)cc1 (stereo not given in full)	i
CCOc1ccc(-c2cc3n(n2)CC(C)(C(=O)NC2CCCCC2)N(Cc2ccccn2)C3=O)cc1 (stereo not given)	i
N#Cc1ccnc(N2C(=O)CC[C@H]2C(=O)N(c2cncc(F)c2)[C@H](C(=O)NC2CC(F)(F)C2)c2ccccc2Cl)c1	i
CCCCN1C(=O)c2cc(C(=O)Nc3ccc(C)c(F)c3)nn2CC1(C)C(=O)NC1CCCC1 (stereo not given)	i
C=C1C(=O)O[C@@H]2[C@H]1CCC(C)=C1CCC(=O)O[C@]12C	i
CCOC(=O)c1cc2n(n1)CC(C)(C(=O)NCCCOC)N(c1ccc(CC)cc1)C2=O (stereo not given)	i
CC1(C(=O)NC2CCCCCC2)Cn2nc(-c3ccco3)cc2C(=O)N1CCCc1ccccc1 (stereo not given)	i
Cn1cncc1CNC(=O)c1nc(-c2cccc(N3CCOCC3)c2)cc2c1ccn2C	i
O=C1COCC2(CN(c3ccc(C(F)(F)F)cn3)C2)CN1c1ccccc1F	i
Cc1csc(NC(=O)[C@@H]2C[C@@H](c3ccc(F)cc3)N([S+](=O)([O-])c3cccnc3)C2)n1	i
CCN(CC)c1nc2c(-c3ccc(Cl)cc3)nnn2c2ccccc12	i
Cc1ccc(NC(=O)N2CCn3cccc3C2C)cc1Cl (stereo not given)	i
O=C(CCc1c[nH]c2ccccc12)N1CC(N(Cc2ccccc2)C2CCOCC2)C1	i
CCOc1ccccc1CN1C(=O)c2c(C(=O)OC)ncn2CC1(C)C(=O)NCc1ccccc1 (stereo not given)	i
COc1cc(OC)c(NC(=O)c2ccc(Cc3cc4c(cc3C)C(C)(C)CCC4(C)C)o2)c(OC)c1	?
O=C1NC[C@@H](CCC(=O)N2CCc3ccccc32)N2C[C@@H](NS(=O)(=O)c3ccccc3)C[C@@H]12	i
CC(C)Cc1ccc(S(=O)(=O)NCCn2cnc3ccccc32)cc1	i
O=C(c1cncs1)N1CCc2c(cc(-c3cccc(F)c3)c(=O)n2CCN2CCCCC2)C1	i
O=C(O)Cn1nnc(-c2ccc(CN(CCCCOc3ccc(CN4CCCC4)cc3)CCc3ccccc3)cc2)n1	+
O=C(NC[C@H]1Cn2ccnc2CO1)C1CCCC1	i
CCn1c(CN2CCN(c3nc(C)cnc3C)CC2)nnc1C1CC(N)C1 (stereo not given)	i
Cc1ccc(CNC(=O)CCn2ccc3cc(S(=O)(=O)N4CCCC4)ccc32)cc1	i
CC(=O)N1CCCC(c2nc(-c3ccc4nc[nH]c4c3)no2)C1 (stereo not given)	i
CCN1CCN(Cc2ccc(NC(=O)c3ccc(C)c(Oc4ncnc5[nH]c(C)cc45)c3)cc2C(F)(F)F)CC1	?

Not all compounds are listed; the hit share may differ from the screen's.
